# High-throughput results as filed in PubChem.
# Mtb growth: Mycobacterium tuberculosis H37Rv growth inhibition, cell based, confirmatory dose response (AID 1949); 100,000 compounds, 1.6% hits; one-dose inhibition, % at 10 µg/mL; IC50 in µg/mL for titrated hits; most inactive calls were filed without a number and no value below 0 was filed; M. tuberculosis H37Rv growth inhibition;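 active = confirmed in a dose series; inconclusive = about 50% or more but not retested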;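 note: bacteria grown 7 days with compound before Alamar blue readout; 0% = untreated bacteria and 100% = reference antibiotic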
# * marks the source's active call; other numbers are inactive results; i = inactive; ? = inconclusive. These rows are one share of the data, so the mix of outcomes need not match the whole.
SMILES,Mtb growth
COc1cccc2cc(C(=O)C[n+]3ccc(C)cc3)c(=O)oc12,i
COc1ccccc1C(=O)N=Nc1c(O)[nH]c2ccc(C)cc12,i
O=C(Nc1cccc(C(=O)N2CCOCC2)c1)C(c1ccccc1)c1ccccc1,i
Cn1c2c(c(=O)n(C)c1=O)C(C(F)(F)F)(C(F)(F)F)N=C(c1ccncc1)N2,i
CCOC(=O)N1CCN(C(=O)COc2ccc(CC)cc2Br)CC1,i
CC(=O)c1ccc(NC(=O)CSc2nnc3c4ccccc4n(C)c3n2)cc1,i
OC(c1ccccc1)c1nccn1Cc1ccccc1 (stereo unspecified),i
Cc1ccc(OCCCCN2CC(C)OC(C)C2)c(C(C)(C)C)c1 (stereo unspecified),6.9%
CC1=C(C(=O)Nc2ccccc2)C(c2coc3ccc(Cl)cc3c2=O)C2=C(CCCC2=O)N1 (stereo unspecified),23.0%
COC(=O)c1ccccc1NC(=S)NC(=O)c1ccc(Cl)cc1,i
CCn1ncc(Br)c1C(=O)Nc1nccs1,i
COc1ccc(C)cc1NC(=O)Nn1cnnc1,i
CCC(Oc1ccc2c3c(c(=O)oc2c1)CCC3)C(=O)OC (stereo unspecified),i
COc1ccc(OCCNC2CCCC2)cc1,i
Cn1c(CNC(=O)c2ccc(Cl)c(Cl)c2)nnc1SCC(=O)Nc1sc2c(c1C#N)CCCC2,i
Cc1cc(Nc2cccc(O)c2)c2cccc(Cl)c2n1,0.1%
CCc1ccc(C(=O)NC(=S)Nc2cccc(NC(=O)c3ccccc3Cl)c2)cc1,i
O=C1OCCC1Sc1nc2ccccc2n1Cc1ccccc1 (stereo unspecified),i
CCOC(=O)c1ccc(NC(=O)c2cn(-c3ccccc3)nc2-c2ccc(OC)c([N+](=O)[O-])c2)cc1,i
CC1CC(OCC(O)CN2CCN(C)CC2)CC(C)(C)C1 (stereo unspecified),i
O=C(Cc1cccs1)Nc1ccc(N2CCCCC2)cc1,i
Cc1ccc(-n2[nH]nnc2=S)cc1Cl,i
OC(COc1ccc2c(c1)OCO2)CN1CCN(Cc2ccc3c(c2)OCO3)CC1 (stereo unspecified),6.2%
O=S1(=O)C=C(Br)c2ccccc21,?
COCc1oc2ccc(NS(=O)(=O)c3cccs3)cc2c1C(=O)OC,0.5%
COc1ccc(CNc2ccc(C)cc2)cc1Cl,6.9%
CS(=O)(=O)Nc1ccc(C(=O)NCCc2ccccc2)cc1,i
c1ccc2c(N3CCCC3)nc(N3CCCC3)nc2c1,16.3%
CC(=O)Nc1ccc2nc(NC(=O)c3cccc(OCc4ccccc4)c3)sc2c1,i
O=C(Nc1ccc2c(c1)OCO2)c1cnn2cccnc12,i
CCOC(=O)c1c(-n2cnnn2)sc2c1CCCC2,7.1%
O=C(Nc1ccccc1N1CCN(C(=O)c2ccccc2)CC1)c1cccc(-c2cc3ccccc3oc2=O)c1,1.2%
C=CCC(Nc1ccc(Cc2ccc(NC(CC=C)c3ccc(C)cc3)cc2)cc1)c1ccc(C)cc1 (stereo unspecified),4.9%
COc1cccc(CN2CCN(Cc3ccc(Cl)cc3)CC2)c1,4.6%
O=C(Nc1cccc(C(F)(F)F)c1)c1ccc(S(=O)(=O)N2CCCCC2)cc1,i
O=C(Nc1nc(-c2ccc(S(=O)(=O)N3CCCC3)cc2)cs1)c1cccs1,14.8%
Cc1cc(=O)oc2cc(OCc3ccc(Br)cc3)ccc12,i
COc1cccc(/C=C/C2=CC(C)(C)NC(=S)N2)c1,i
CC(C)c1cccc(OCCN2CCCCC2)c1,i
O=C1CC(C(=O)Nc2ccc(Br)cc2)C2(CCCCC2)O1 (stereo unspecified),i
COC(=O)Cc1c(C)nc2nc(NCc3cccs3)[nH]n2c1=O,4.5%
NC(=O)c1ccccc1NC(=O)Nc1ccccc1C(F)(F)F,i
CC(=O)Nc1cccc(NC(=O)c2ccc(NC(=O)C(C)C)cc2)c1,i
COc1ccccc1OCc1cccc(C(=O)NCC(C)C)c1,i
CC1=C(C(=O)Nc2ccc(F)cc2)C(c2ccccc2Br)NC(=S)N1 (stereo unspecified),3.4%
Cc1c(C)c2cc(Cl)c(OCC(=O)C(C)(C)C)cc2oc1=O,i
COC(=O)C(C)Sc1ncnc2sc3c(c12)CCC(C)C3 (stereo unspecified),1.3%
COc1cc(/C=C2/C(=O)N(c3ccccc3)N=C2C)cc(Br)c1OC(=O)c1cccs1,i
COC(=O)c1cc(NS(=O)(=O)c2ccc(Br)s2)ccc1Cl,i
O=C(CC(O)(C(F)(F)F)C(F)(F)F)Nc1ccccc1Br,4.0%
# New compounds follow
SMILES,Mtb growth
N#Cc1c(-c2ccccc2)nc(SCC(=O)N(c2ccccc2)c2ccccc2)[nH]c1=O,i
CCC(=O)Oc1ccc(C(=O)Nc2cccc(C(=O)NC(C)(C)C)c2)cc1,2.4%
Cc1cc(C)cc(C(=O)O/N=C(\N)c2ccccn2)c1,36.1%
O=C(Cc1cccc2ccccc12)Nc1nccs1,i
N#Cc1c(-c2ccco2)nc(N2CCCCC2)[nH]c1=O,i
CC(C)OC(=O)c1ccc(Nc2ncnc3ccccc23)cc1,13.7%
CSc1nc2sc3c(c2c(=O)n1C)CCC3,i
COc1ccccc1NC(=O)C1=C(C)Nc2ncnn2C1c1ccc(Br)cc1 (stereo unspecified),i
O=C1c2ccccc2C(=O)N1CC(O)COc1ccc(Cl)cc1Cl (stereo unspecified),i
O=C(OC1CCNC2CCCCC21)c1ccccc1 (stereo unspecified),i
Nc1cc(=O)[nH]c(SCC(=O)Nc2cc(Cl)cc(Cl)c2)n1,i
O=C(CN1C(=O)c2ccccc2C1=O)Nc1ccc(S(=O)(=O)NCCc2ccccc2)cc1,i
Cc1ccc(CNC(=S)NCCN(C)C)cc1,0.2%
O=C1NC(=O)c2cc(NC(=O)C3CCCCC3)ccc21,i
CCOc1ccc(NC(=O)CSc2nnc(CSCc3ccccc3)n2CC)cc1,0.7%
COC(=O)c1sccc1NC(=O)Nc1cccc(C(C)=O)c1,i
Cc1ccc(-c2cc(-c3ccc4ccccc4c3O)[nH]n2)cc1,i
CCn1c2ccccc2c2cc(NC(=O)N3CCOCC3)ccc21,i
COc1ccc(C(C)(C)C)cc1NC(=S)NCc1ccc(Cl)cc1,14.2%
COc1ccc(S(=O)(=O)N2CCC(C(=O)N3CCN(Cc4ccccc4)CC3)CC2)cc1C,1.3%
O=C(CC1SC(=O)NC1=O)Nc1ccccc1NC(=O)CC1SC(=O)NC1=O (stereo unspecified),i
COc1ccc(-c2nnnn2C(C)C)cc1,i
CCOC(=O)c1c(NC(=S)n2cc(C)cn2)sc(C)c1-c1ccccc1,i
Cc1cc(C)cc(NC(=O)COc2ccc(C)c(C)c2)c1,i
Cc1c(NC(=O)COc2ccc(C(C)C)cc2)cccc1[N+](=O)[O-],0.6%
O=C(Nc1ccccc1N1CCCC1)c1ccc(F)cc1,4.9%
O=C(CSc1nnc(-c2ccccc2)n1Cc1ccccc1)Nc1nccs1,i
Cc1ccc(NC(=O)CSc2nc3ccccc3c(=O)n2-c2ccccc2)c(C)c1,3.1%
COc1ccc(OC)c(C2CC(c3ccc(C)cc3)=NN2C(C)=O)c1 (stereo unspecified),i
COC(=O)CSc1nc2c(c(C3CC=CCC3)c1C#N)CCC2 (stereo unspecified),i
COC(=O)c1c(NC(=O)C(CC(C)C)N2C(=O)c3ccccc3C2=O)sc2c1CCC2 (stereo unspecified),i
CC1=C(C(=O)Nc2ccc(Br)cc2)C(c2ccc([N+](=O)[O-])cc2)NC(=O)N1 (stereo unspecified),i
COc1ccc(NC(=O)COc2ccc(Br)cc2C)c(OC)c1,i
Cc1nnc2sc(-c3cccc(NC(=S)NC(=O)c4cc5ccccc5o4)c3)nn12,i
O=C(Nc1nnc(C2CCCCC2)s1)C1c2ccccc2Oc2ccccc21,i
CCOc1ccc(Cn2c(=O)oc3ccc(C)cc32)cc1,i
COc1ccc(C(=O)NC2CCS(=O)(=O)C2)cc1OC (stereo unspecified),i
Cc1cc(C)c(NC(=O)CSc2nnc(-c3ccccc3)n2-c2ccc(F)cc2)c(C)c1,i
COC(=O)c1cc(-c2cccc(OC)c2)nc2ccccc12,i
O=C(CCc1ccccc1)Nc1nnc(CCN2CCCCC2)s1,1.7%
CCOc1cccc(OCCOCCNC(C)(C)C)c1,i
Cc1ccccc1N(CC(=O)Nc1ccc(F)cc1)S(C)(=O)=O,i
C=CCn1c(SCC(=O)Nc2c(F)cc(F)cc2Br)nnc1-c1ccc(Cl)cc1,2.3%
CC(C)OCCCNS(=O)(=O)c1ccc2c(c1)OCCO2,i
O=C1c2ccccc2S(=O)(=O)N1Cc1ccc(Cl)cc1Cl,i
COc1ccc(S(=O)(=O)NCCSCc2cccc(Cl)c2)c(Cl)c1Cl,i
Cc1onc(-c2ccccc2Cl)c1C(=O)NCC12CC3CC(CC(C3)C1)C2,2.4%
C=CCc1ccccc1OCCOCCNCCN,4.8%
CSc1ccc(CN2CCC(N3CCCC3)CC2)cc1,i
O=C(c1cccc([N+](=O)[O-])c1)N1N=C(c2ccc(Br)cc2)CC1(O)C(F)(F)F (stereo unspecified),2.13µg/mL*
# Additional entries follow.
SMILES,Mtb growth
CCC(Sc1nnc2c3cc(Br)ccc3n(C)c2n1)C(=O)Nc1nnc(C(C)C)s1 (stereo unspecified),i
Cc1cc(OCc2ccc(C(=O)O)o2)ccc1Cl,i
CCCCc1ccc2nc(NC(=O)c3cccnc3)sc2c1,4.0%
O=C(Nc1ccc(Cl)cc1)c1ccc([N+](=O)[O-])cc1,1.0%
O=C(NC1CCCC1)c1ccc(COCC(F)(F)F)o1,i
CC(NC(=O)CCN1C(=O)c2ccccc2C1=O)c1ccc2c(c1)CCCC2 (stereo unspecified),i
CNC(=O)c1ccc(N(Cc2ccccc2C)S(C)(=O)=O)cc1,i
Cc1ccc(NC(=O)CCC(=O)NNC(=O)Nc2cccc(Cl)c2)c(C)c1,i
Cc1ccc(C(=O)Nc2c(Cl)cccc2Cl)cc1C,i
O=[N+]([O-])c1ccc(NC(=S)NCCCn2ccnc2)cc1,i
C=Cc1cccc(NC(=O)c2ccc3c(c2)C(=O)N(CCOC)C3=O)c1,i
O=C(Nc1sc2c(c1C(=O)O)CCCC2)c1cccs1,i
Cc1ccc(C)c(OCCCC(=O)NCC2CCCO2)c1 (stereo unspecified),i
O=C(c1ccncc1)N1CCN(Cc2ccc(Br)cc2)CC1,i
COc1ccc(CNCCc2ccccc2)cc1OC,3.4%
N#Cc1cccc(NC(=O)Nc2cccc(Cl)c2)c1,6.26µg/mL*
COc1cc([N+](=O)[O-])ccc1NC(=O)N1CC(C)OC(C)C1 (stereo unspecified),1.2%
COc1cc(/C=C2\C(=O)N(c3cccc(C(=O)O)c3)N=C2C)ccc1OC(=O)c1ccco1,4.8%
CCC(C)c1ccccc1OCCOCCN(CC)CC (stereo unspecified),i
Cc1ccc([N+](=O)[O-])cc1NS(=O)(=O)c1ccc(-c2ccccc2)cc1,i
Cc1cc(Cl)ccc1NC(=S)N1CCN(c2ccc(F)cc2)CC1,11.5%
CN(Cc1ccccc1)S(=O)(=O)c1ccc(NC(=S)NC(=O)C2CCCCC2)cc1,i
N#CC1=C(SCC(=O)N(c2ccccc2)c2ccccc2)NC(=O)CC1c1ccc(OCc2ccccc2)cc1 (stereo unspecified),2.3%
N#Cc1c(SCC(=O)c2ccccc2)nc2c(c1-c1cccnc1)CCCC2,i
O=C(Nc1ccc(F)cc1)c1sc2cccc(Cl)c2c1Cl,7.6%
Cc1cc(Br)cc(C)c1OCC(=O)N1CCOCC1,i
COc1ccc(N2N=NN(C(C)C)/C2=C/c2nnnn2-c2ccc(OC)cc2)cc1,i
Cc1cc(NC(=S)NC(=O)Cc2ccc(Cl)cc2)ccc1Br,3.2%
COc1cc(S(=O)(=O)NC2CC(C)(C)NC(C)(C)C2)c(OC)cc1Br,i
COc1cc(NC(=O)CN(C)S(=O)(=O)c2ccc3ccccc3c2)c(OC)cc1Cl,i
O=C(NCc1cccc(Oc2ccccc2)c1)C(=O)c1c[nH]c2ccccc12,5.7%
Cc1ccccc1Cn1ccc(NC(=O)c2cnn3cc(Br)cnc23)n1,i
Cc1ccccc1-c1noc(C23CC4CC(CC(C4)C2)C3)n1,3.9%
Cc1cc(=O)oc2cc(NC(=S)Nc3ccc4c(c3)OCCO4)ccc12,i
COc1ccc(CCNC(=O)C2CCN(S(=O)(=O)c3ccc(Cl)cc3)CC2)cc1OC,4.2%
COc1cc2nc3c4ccccc4n(CC(=O)O)c3nc2cc1OC,i
O=[N+]([O-])c1ccc(S(=O)(=O)Nc2cc(Cl)ccc2O)cc1,?
CCn1c(SCC(=O)Nc2ccccc2C(=O)OC)nnc1-c1cccc(C)c1,i
CCN(CC)c1ccc(NC(=O)Nc2cc(OC)ccc2OC)cc1,i
